# Assay outcomes (PubChem)
# gsp ag: qHTS for Agonist of gsp, the Etiologic Mutation Responsible for Fibrous Dysplasia/McCune-Albright Syndrome: qHTS; gsp mutant cells, cAMP HTRF, 30 min; control for the full effect not named in the record; Potency, µM (doses to about 76.9 µM), for inactives: at the highest dose activation (cAMP increase), most hits filed as activators; 0.13% of 340,000 active; AID 624287, 2012; active = well fitted activation curve with a large enough effect; inconclusive = small, poorly fitted or top-dose-only effect, or another doubt; inactive = no such curve, though single readings can be large or run the other way; cell line not stated here;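 note: phosphodiesterase inhibitor Ro 20-1724 added with compounds to block cAMP breakdown; potency is the fitted concentration of half-maximal effect; nearly all actives have a fitted effect of over 60% in size; about a fifth of the inactives were tested at one dose only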
#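 Cells stably selected in G418 were plated at 2000/well, grown 16-24 hr, then given compounds in DMSO with the PDE inhibitor […] (300 uM solution added) for 30 min at 37C; cAMP was read by HTRF.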
# Six1-Eya2 inh: qHTS Assay for Inhibitors of the Six1/Eya2 Interaction; Homeobox protein SIX1 (Homo sapiens) + Protein phosphatase EYA2 (Homo sapiens), …; AlphaScreen GST-Six1/His-Eya2 binding, biochemical; stronger effect = lower value; control for the full effect not named in the record; activity change, % (no concentration beside the values); 0.56% of 360,000 active; AID 651725, 2012; in the data active = activity change below about -65%; inconclusive = about -30% to -65%; inactive = above about -30%; note: % is set by controls: 0 for no effect and ±100 for the full control effect; compound concentration not given in the record
# Target sequence (O00167 whole entry, looked up): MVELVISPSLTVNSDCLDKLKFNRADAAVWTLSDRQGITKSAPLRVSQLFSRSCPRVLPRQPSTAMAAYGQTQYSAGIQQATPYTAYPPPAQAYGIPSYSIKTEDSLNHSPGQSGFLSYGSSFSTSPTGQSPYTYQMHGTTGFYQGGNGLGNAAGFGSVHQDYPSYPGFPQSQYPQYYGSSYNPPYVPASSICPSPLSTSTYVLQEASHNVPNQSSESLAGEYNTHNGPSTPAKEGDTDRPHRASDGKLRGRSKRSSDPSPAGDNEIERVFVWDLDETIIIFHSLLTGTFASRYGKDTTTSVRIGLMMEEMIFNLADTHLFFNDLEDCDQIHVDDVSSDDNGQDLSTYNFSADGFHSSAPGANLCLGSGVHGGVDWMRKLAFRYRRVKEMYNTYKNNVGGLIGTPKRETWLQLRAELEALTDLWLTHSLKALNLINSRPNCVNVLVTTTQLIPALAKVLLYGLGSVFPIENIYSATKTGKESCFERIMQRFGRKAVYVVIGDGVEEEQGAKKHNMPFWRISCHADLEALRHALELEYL
# Target sequence (Q15475 whole entry, looked up): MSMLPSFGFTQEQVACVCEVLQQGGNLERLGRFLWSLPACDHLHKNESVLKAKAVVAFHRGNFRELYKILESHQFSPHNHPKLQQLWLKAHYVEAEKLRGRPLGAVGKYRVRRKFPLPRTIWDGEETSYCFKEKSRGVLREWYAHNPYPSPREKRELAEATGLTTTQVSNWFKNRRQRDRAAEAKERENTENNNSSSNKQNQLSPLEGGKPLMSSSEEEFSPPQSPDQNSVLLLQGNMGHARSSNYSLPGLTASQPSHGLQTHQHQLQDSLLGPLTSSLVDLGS
#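 AlphaScreen luminescence read after one hour at 37 °C in darkness. Pin-transferred compounds met GST-Six1 and His-Eya2 protein (5X stock 250 nM/500 nM) plus glutathione donor and Ni-chelate acceptor beads (5X, 50 ug/mL).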
# D2 agonist: Beta-Arrestin HTS for Positive Allosteric Modulators of the Human D2 Dopamine Receptor: Agonists; DiscoveRx PathHunter D2 beta-arrestin, luminescence, 90 min; 100% = 57 uM dopamine signal; AID 624465, 2012; 0.084% of 360,000 active; activation, % (test concentration not listed); D(2) dopamine receptor (Homo sapiens), P14416; in the data active = activation above about 40%; inconclusive = about 15% to 40%; inactive = below about 15%; note: compound concentration not given in the record; the text of the record calls up to 30% inactive
#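 DiscoveRx PathHunter D2 beta-arrestin cells (2,100/well) attached overnight, then compound-stimulated 90 min at 37 C in HBSS/10 mM HEPES/0.1% Tween-20 buffer; beta-galactosidase complementation read by luminescence after 1 h at ambient temperature. Dopamine 57 uM final (EC100) as control.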
# gsp antagonist: qHTS for Antagonists of gsp, the Etiologic Mutation Responsible for Fibrous Dysplasia/McCune-Albright Syndrome: qHTS; gsp-mutant cells, cAMP HTRF, 30 min; control for the full effect not named in the record; Potency, µM (doses to about 76.9 µM), without a hit: top-dose activity change, negative = inhibition, usual class: inhibitors; 0.4% of 340,000 active; active = falling curve of any shape with a large fitted effect; inconclusive = falling curve, mostly with a smaller effect; inactive = flat or rising curve; cell line not stated here;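 note: intracellular cAMP measured with PDE inhibitor Ro 20-1724 present during compound exposure; potency is the fitted concentration of half-maximal effect; % is set by controls: 0 for no effect and ±100 for the full control effect; nearly all actives have a fitted effect of over 65% in size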
#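 HTRF cAMP read-out (cAMP-d2 plus anti-cAMP antibody-K in lysis buffer, 30 min RT). Before lysis, cells are exposed to compounds with […] for 30 min at 37C in DPBS containing Ca/Mg, BSA and Tween 20.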
# CtBP-E1A inh: qHTS Assay for Inhibitors of the CtBP/E1A Interaction. CtBP / adenovirus E1A interaction (AlphaScreen). activity change, % (test concentration not listed). 0.49% of 340,000 active. AlphaScreen GST-E1A/His-CtBP binding, 1536-well; stronger effect = lower value; control for the full effect not named in the record. AID 651724, 2012; in the data active means activity change below about -65%; inconclusive means about -30% to -65%; inactive means above about -30%; note: % is set by controls: 0 for no effect and ±100 for the full control effect; compound concentration not given in the record
#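 Steps: dispense buffer (Tris pH 8.0, NaCl 300 mM, TCEP 1 mM, BSA, Tween 20); add 5X protein mix (GST-E1A, His-CtBP, 125 nM each); pin 23 nL compound; 2 h at 37 °C, dark; add 5X beads (50 ug/mL); 1 h; read.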
# D2 potentiator: Beta-Arrestin HTS for Positive Allosteric Modulators of the Human D2 Dopamine Receptor: Potentiators; D(2) dopamine receptor (Homo sapiens), P14416; DiscoveRx D2 beta-arrestin cells, luminescence, 90 min; 100% = 57 uM dopamine signal; potentiation, % (test concentration not listed); 0.23% of 360,000 active; AID 624464, 2012; active = potentiation of 50% or more; inconclusive = 30% to 50%; inactive = 30% or less;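 note: compound concentration not given in the record; tested on top of an EC20 dose of dopamine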
#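 PathHunter D2 cells, attached overnight at 37 deg C, received compound in DMSO plus dopamine at EC20 (50 nM final) for 90 min at 37 deg C. Beta-arrestin recruitment was read as luminescence after 1 h with detection reagent at ambient temperature.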
# * = called active by the depositor; u = inconclusive; x = no result given; [ ] = dose if it differs, or a comment.
SMILES,gsp ag,Six1-Eya2 inh,D2 agonist,gsp antagonist,CtBP-E1A inh,D2 potentiator
COc1cc2c(cc1OC)C(c1ccc(Br)cc1)NCC2 (centres undefined),-2%,89,-2.2,4%,-9,-6
COc1cccc(CC2(CO)CCCN(Cc3ccc(CN4CCCCC4)s3)C2)c1 (centres undefined),2%,-19,-5.2,48%[activator],x,-19
CSc1ccccc1NC(=O)c1ccco1,9%,4,-2.4,13%,0,-8
O=c1ccc(-c2ccc(S(=O)(=O)NCC3CCN(Cc4ccccc4F)CC3)s2)n[nH]1,-1%,-84*,2.5,0%,-88*,-19
Cc1ccccc1Cc1c(C)nc2nc(SCC(=O)NCc3ccco3)nn2c1C,-12%,-4,-3.6,4%,-1,0
CCOC(=O)CNC(=O)CSc1nnc(-c2ccco2)n1Cc1ccco1,8%,0,1.0,-17%,1,-6
COC(=O)c1ccccc1Sc1c(/C=N/OC(=O)c2ccccc2)c(C(F)(F)F)nn1C,5%,1,-1.6,4%,5,-1
COc1cc(CCC(=O)OCC(=O)Nc2ccc(F)cc2F)cc(OC)c1OC,2%[15.4 µM],5,-2.0,-9%,7,-2
COc1cccc2c(=O)n(CC(=O)Nc3ccccc3)ccc12,14%,6,-5.0,5%,-1,-7
Cc1oc2ccc(OC(C(=O)O)c3ccccc3)cc2c1C(=O)O (centres undefined),0%[15.4 µM],1,-1.8,19%,-1,-7
C=CCn1c(-c2ccc(C)cc2)nc2ccccc21,9%,-5,-0.1,u,-9,-11
CCCSc1nnc(Cn2c(=O)sc3ccccc32)n1-c1ccccc1,-17%,-1,1.2,-11%,0,0
Cc1noc(C)c1S(=O)(=O)Nc1ccc(C(=O)NC2CCCCCC2)cc1,-2%[15.4 µM],6,-1.2,-8%,5,-10
Cc1sc2ncn(CC(=O)NCC(=O)N(C)Cc3ccccc3)c(=O)c2c1C,11µM*,2,-1.0,8%,7,-2
CC(C)(C)CN1C(=O)C(=O)NC[C@H]1Cc1ccc(O)cc1,x,7,-1.9,8%,5,-7
Nc1cc(S(=O)(=O)N2CCOCC2)ccc1Oc1cccc(Br)c1,6%[15.4 µM],3,4.8,-7%,-26,-12
Nc1ncnc2c1ncn2[C@@H]1O[C@H](CNCc2c(OCc3ccccc3F)ccc3ccccc23)[C@@H](O)[C@H]1O,x,-1,-1.2,10%,-5,-20
Cc1ccc(C(c2nnnn2CC2CCCO2)N2CCN(c3cccc(C)c3C)CC2)cc1 (centres undefined),-23%,-6,-2.7,-6%,-8,-21
CCOc1ccc(NS(=O)(=O)c2ccc(C(=O)NCCN3CCOCC3)cc2)cc1,1%,3,-1.9,10%,3,5
C#CCN(Cc1ccccc1)S(=O)(=O)C=C,-1%,1,-0.2,11%,3,-7
Cc1ccc(C)c(NC(=O)C2CCCN2C(=O)NC2CCCCC2)c1 (centres undefined),-56%[inhibitor],-3,4.5,12%,x,7
N=c1c2c(-c3ccccc3)c(-c3ccccc3)n(Cc3ccco3)c2ncn1CCCO,8%[15.4 µM],-25,-13,3%,-15,-10
CC(OC(=O)CNC(=O)C12CC3CC(CC(C3)C1)C2)C(=O)Nc1ccc(S(N)(=O)=O)cc1 (centres undefined),-4%[15.4 µM],-1,0.8,-4%,5,0
CC(=O)C1=C(O)C(=O)N(C)C1c1ccccc1F (centres undefined),1%,0,-0.8,5%,6,-7
C=CCN1C(=O)CS/C1=N\S(=O)(=O)c1ccc(Cl)cc1,-52%,-3,-7.5,-6%,0,-39
CCOC(=O)N1CCN(c2c(NCc3ccccn3)c(=O)c2=O)CC1,-7%,7,-1.8,7%,-29,4
CC(=O)N1N=C(c2cccc([N+](=O)[O-])c2)OC1c1ccc(Cl)cc1Cl (centres undefined),2%,u,-3.1,-10%,u,-7
O=C1CSC2(C(=O)N3CCCc4cccc2c43)N1c1cccc(C(F)(F)F)c1 (centres undefined),17%,4,-2.7,-7%,-3,-13
COc1ccc(OC)c2c1sc(=NC(=O)C(C)(C)C)n2C,-9%,-2,-2.1,10%,-3,0
Cc1c(C(=O)NCc2cccc(C(F)(F)F)c2)sc(=O)n1Cc1ccc(F)cc1,x,-1,3.0,x,-3,0
CCOc1ccc(Br)cc1C(=O)N/N=C/c1c[nH]c2ccccc12,u,0,1.4,-13%,x,-8
N#Cc1ccc(NC(=O)COC(=O)CNC(=O)C2CCCCC2)cc1,-19%,4,0.0,-10%,7,22
COc1ccccc1N(C)c1cc2c(c3c1ccn3C)C1CCC2O1 (centres undefined),x,-17,8.3,x,u,6
O=C(/C=C/c1ccco1)Nc1ccc(Oc2ccccc2)cc1,0%,-5,-0.1,u,-4,-10
O=C(CSc1ccc2c(c1)OCCO2)Nc1ccc(Br)cn1,17%[15.4 µM],-1,0.8,-18%,-3,-10
C=CCn1c(SCC(=O)Nc2cccnc2Cl)nnc1-c1ccc(Cl)cc1,4%,8,-2.1,-13%,0,-6
O=C(O)C[C@H]1c2cc(C(F)(F)F)ccc2S(=O)(=O)N1Cc1ccccc1,-12%,11,1.5,11%,0,-2
Cc1cc(C(O)c2ncc(-c3ccc(Oc4ccccc4)cc3)[nH]2)ccc1F (centres undefined),x,u,-2.5,x,-14,-7
CCOC(=S)NC(=O)c1sc2ccccc2c1Cl,19%,-1,-2.7,-3%,-3,-12
COc1ccc(-n2c(COc3ccc4c(c3)OCO4)nnc2SCC(=O)O)cc1,-44%[inhibitor],4,-2.6,4%,x,-3
CC(=O)Oc1ccc(-c2csc(Nc3cccc(C)n3)n2)cc1,15%[15.4 µM],22,0.9,-32%,11,-6
COc1ccc(OC)c(-c2csc(NC(=O)Cc3cc(OC)c(OC)c(OC)c3)n2)c1,5%[15.4 µM],-7,-1.7,-6%,-5,7
COc1ccc(OC)c(NC(=O)c2cccnc2Sc2cc(C)ccc2C)c1,u,-10,-2.3,-10%,-19,-11
COc1ccc(N(C(=O)C(C)C)S(=O)(=O)c2ccc3ccccc3c2)cc1,-17%,-6,1.0,u,22,-1
CCOC(=O)Cc1csc(NC(=O)COc2cccc(C)c2)n1,-53%[inhibitor],2,2.9,0%,x,-11
NC(N)=NN=C(c1ccc(F)cc1)c1ccc(C(F)(F)F)cc1,9%,1,-0.6,15%,8,-2
Cc1ccc2nc(-c3ccccc3)cc(C(=O)O)c2c1,4%,0,-4.6,-8%,-2,-16
CN(Cc1cccc(F)c1)C(=O)CSc1nnnn1C1CC1,-7%[15.4 µM],4,0.0,1%,u,3
COc1ccccc1NC(=O)CCN1C(=O)c2ccccc2C1=O,-3%[15.4 µM],2,-1.3,9%,11,-5
O=C(N/N=C\c1ccc([N+](=O)[O-])o1)C1COc2ccccc2O1 (centres undefined),-11%[15.4 µM],-17,-0.6,7%,-21,-1
CCOCCCNC(=O)Cn1cnc2sc(C)c(S(=O)(=O)N3CCN(c4ncccn4)CC3)c2c1=O,-18%[15.4 µM],12,-4.6,4%,0,2
Cc1ccc(N(C)C(=O)c2ccc(CNc3c(N4CCC(C)CC4)c(=O)c3=O)cc2)cc1,-6%[15.4 µM],-2,-4.1,-4%,8,-4
Cc1cc(C)cc(NC(=O)CCOc2ccccc2)c1,u,4,-4.7,1%,x,-2
CCOC(=O)c1sc(NC(=O)Nc2cccc(Cl)c2)cc1C,1%,-1,4.2,-60%,-2,-3
NCC(c1ccco1)c1c[nH]c2ccccc12 (centres undefined),2%,-5,-4.1,1%,5,-4
COc1ccccc1C1(O)C(=O)Nc2ccccc21 (centres undefined),7%,4,-3.5,2%,-19,1
O=C(OC1CCOC1=O)c1ccc(Cl)c(S(=O)(=O)N2CCOCC2)c1 (centres undefined),-31%[inhibitor],0,0.0,0%,0,5
Cc1ccc(S(=O)(=O)N2CCC(C(=O)NCCN3CCOCC3)CC2)cc1C,22%,6,3.3,0%,6,4
COCCCn1c(SCC(=O)NC2CCCC2)nnc1-c1cccs1,3%[15.4 µM],-4,-2.4,2%,8,1
Cc1ccc(NC(=O)c2ccc(C(C)(C)C)cc2)cc1-n1cnnn1,2%,4,-1.4,-22%,2,-9
# (further entries)
SMILES,gsp ag,Six1-Eya2 inh,D2 agonist,gsp antagonist,CtBP-E1A inh,D2 potentiator
COc1ccc(N2CCN(C(=S)Nc3ccc(S(N)(=O)=O)cc3)CC2)cc1,4%[15.4 µM],1,4.5,x,2,-1
CCCN(CC(=O)Nc1ccccc1OC)C(=O)Cc1ccccc1F,-1%[15.4 µM],6,-2.1,5%,3,-4
COc1ccccc1Nc1nc(N)nc(CN2CCC(C)CC2)n1,9%[15.4 µM],-17,-3.2,2%,-13,-30
COc1ccc(C(=O)N2CCN(Cc3cn[nH]c3-c3ccc(OC)cc3F)CC2)cc1,-163%[inhibitor],19,-6.4,0%,x,-5
Cc1c([N+](=O)[O-])c(C(=O)N2CCCC2)nn1C,4%,2,-0.8,10%,6,1
Cc1cc(CSCc2ccc(Cl)cc2)no1,-23%,18,4.5,-3%,7,0
CN(c1ccccc1)S(=O)(=O)CS(=O)(=O)N(C)c1ccccc1,-13%,3,0.4,-3%,-4,-13
O=C(NC(=S)NC1CCSC1=O)c1ccccc1F (centres undefined),1%,5,-5.0,-19%,5,-2
O=C(CCCc1ccccc1)Nc1ccnn1C1CCN(Cc2ccccc2)CC1,-16%,-4,-6.3,12%,0,-30
CN(c1ccccc1)S(=O)(=O)c1ccc(C(=O)NNC(=O)c2ccccc2F)cc1,3%,9,5.6,-3%,7,-3
Cc1ccc(Cn2cnc3c(nnn3Cc3ccc(Cl)cc3)c2=O)cc1,-62%[inhibitor],-1,-3.8,6%,5,-3
CCC(=O)Nc1cc(C(C)C)c(O)cc1C,-41%[inhibitor],-8,-3.6,9%,10,-28

# Among those listed so far, three have a nitro group on carbon.
SMILES,gsp ag,Six1-Eya2 inh,D2 agonist,gsp antagonist,CtBP-E1A inh,D2 potentiator
CC(=O)N1N=C(c2cccc([N+](=O)[O-])c2)OC1c1ccc(Cl)cc1Cl (centres undefined),2%,u,-3.1,-10%,u,-7
O=C(N/N=C\c1ccc([N+](=O)[O-])o1)C1COc2ccccc2O1 (centres undefined),-11%[15.4 µM],-17,-0.6,7%,-21,-1
Cc1c([N+](=O)[O-])c(C(=O)N2CCCC2)nn1C,4%,2,-0.8,10%,6,1
